2A firefly – Primary qHTS Assay for Foot and Mouth Disease Virus Antivirals against NCGC Sytravon and CBC Compound Libraries: Firefly Luciferase Signal | HEK cells with a luciferase reporter of 2A StopGo recoding | Potency, µM (doses to about 57.5 µM), for inactives: at the top dose signal change, negative = less light | 0.23% of 120,000 active | AID 1745856, 2022; active = well fitted falling curve with a large enough effect; inconclusive = small, poorly fitted or top-dose-only effect; inactive = no such curve, though single readings can be large or run the other way; also: nearly all actives have a fitted effect of over 60% in size; overnight with compound
2A Renilla – Primary qHTS Assay for Foot and Mouth Disease Virus Antivirals against NCGC Sytravon and CBC Compound Libraries: Renilla Luciferase Signal; 0.32% of 120,000 active; HEK cells with a luciferase reporter of 2A StopGo recoding; Potency, µM (series often up to 57.5 µM), for the others: at the top dose signal change, negative = less light; active means well fitted falling curve with a large enough effect; inconclusive means small, poorly fitted or top-dose-only effect; inactive means no such curve, though single readings can be large or run the other way; also: nearly all actives have a fitted effect of over 55% in size; overnight with compound
* = called active by the depositor; ? = inconclusive; & = joins results of further samples; [ ] = dose if it differs, or a comment. % is scaled to controls: 0 for no effect and ±100 for the full control effect; potency is read from the fitted curve at half-maximal effect. The list is partial (hit frequency here may not be typical).

SMILES	2A firefly	2A Renilla
COc1c(C)cnc(CN2CCN(C(C(=O)O)c3c[nH]c4ccc(Br)cc34)CC2)c1C (stereo not given)	-3%	-8%
COc1ccc(NC(=O)c2c(NC(=O)COc3ccccc3)sc3c2CCCCC3)cc1	-3%	-2%
CC(C)(CO)NC(=O)c1ccc(F)cc1	-9%	-5%
Cc1ccc2cc(CN(Cc3ccccc3)C(=O)c3ccco3)c(=O)[nH]c2c1	-3%	4%
Cc1nn(-c2ccccc2)c2c1[C@@H](c1cccc(Cl)c1)[C@H](NC(=O)c1ccccc1)C(=O)N2	2%	-8%
Cc1ccc(S(=O)(=O)N2CCCCC2)cc1NS(=O)(=O)c1cccc(C(=O)O)c1	-1%	-3%
CC(=O)c1cccc(NC(=O)Cc2noc3ccccc23)c1	118%[activator]	9%
Cc1ccc2nc(Cl)c3cc(C(=O)NC4CCCc5ccccc54)sc3c2c1 (stereo not given)	3%	8%
O=[N+]([O-])c1ccc(-c2nc(N3CCCCCC3)c3ccccc3n2)cc1	-9%	-14%
Cc1sc(-n2c(C)cc(/C=N/O)c2C)c(C(=O)O)c1C	7%	-1%
Cc1ccc(-n2ncc3c(NC4CCCCCC4)ncnc32)cc1Cl	107%&185%[activator]	-1%&12%
CCc1c(C)sc(NC(=O)C(CC)c2ccccc2)c1C#N (stereo not given)	-6%	-2%
CCOC(=O)C(Cc1ccccc1)NC(=O)Cn1nnc(-c2ccc(C)cc2)n1 (stereo not given)	-12%	-13%
CC(Sc1ccccc1C(=O)NCC(=O)C(C)(C)C)C(=O)Nc1ccc(F)cc1 (stereo not given)	-13%	-4%
C=CCn1c(COc2cc(C)c(Cl)c(C)c2)n[nH]c1=S	80%[activator]	17%
CCOc1ccccc1NC(=O)CC1Sc2ccccc2NC1=O (stereo not given)	-13%	81%[activator]
Cc1ccc(NC(=O)c2cc(-c3cccnc3)nc3ccc(C)cc23)nc1	12%	5%
CC#C[C@]1(O)CC[C@H]2[C@@H]3C[C@H](C)C4=CC(=O)CC[C@]4(C)[C@H]3CC[C@@]21C	-3%	9%
Cc1cccc(C)c1NC(=O)Nc1csc2c1CCCC2	-19%	-8%
COc1ccc(NC(=O)Nc2nnc(C)s2)cc1	0%	-2%
Cn1c(Oc2ccc(F)cc2)c(C#N)c(=O)n(C)c1=O	-5%	-9%
CCn1cc(C(=O)OCC(=O)Nc2ccc(F)cc2F)c(=O)c2ccc(C)nc21	20%	11%
CC(=O)Nc1ccc(S(=O)(=O)NC2(C(F)(F)F)NC(=O)N(c3ccccc3F)C2=O)cc1 (stereo not given)	-11%	-5%
Cc1ccc2nc(CSc3nnc(NC(=O)CC(C)C)s3)cc(=O)n2c1	-4%	3%
Cc1c(C#N)c(NC(=O)CN2CCNC(=O)C2)n(Cc2ccco2)c1C	-1%	-3%
CCCn1cnc2nc(COc3cc(NC(=O)COc4ccc(C)c(C)c4)ccc3C)cc(=O)n21	4%	1%
CCCN(CCC)C(=O)c1nn(C)c2c1CSc1ccccc1-2	7%	48%[activator]
CCOCCc1nn2c(=O)cc(COC(=O)c3ccccc3NC(=O)c3ccccc3F)nc2s1	-14%	-7%
CCC(CO)Nc1ncnc2c1cnn2-c1ccc(C)cc1 (stereo not given)	15%	28%
Cc1c(C(=O)C(=O)N(C)Cc2ccccc2)c2ccccc2n1C	0%	114%[activator]
Cc1cc(C)c(C)c(OCCCN)c1	0%	3%
O=C(Cc1ccccc1)Nc1sc2c(c1C(=O)Nc1ccc(Br)cc1)CCC2	-25%	-12%
O=C(Nc1ccc(-c2noc(-c3ccccc3Br)n2)cc1)c1ccco1	32%[activator]	?
CCOc1ccc(-c2ccc(NS(=O)(=O)c3cc(C)ccc3OC)cc2)nn1	12%	66%[activator]
CCOC(=O)c1[nH]cnc1C(=O)Nc1cccc(OC)c1	-23%	-1%
CNS(=O)(=O)c1ccc(Oc2ccc3ccc(=O)oc3c2)c([N+](=O)[O-])c1	3%	14%
Cc1ccccc1-c1noc(-c2ccc(Br)cc2)n1	102%[activator]	1%
Cc1ccc2[nH]cc(C(C(=O)O)N3CCN(Cc4cccc(Cl)c4)CC3)c2c1 (stereo not given)	1%	3%
Cc1nc2cccnc2n1-c1cccc(C(=O)NCCc2ccc(Cl)cc2)c1	-18%	-13%
O=C(Nc1ccc2oc(=O)ccc2c1)c1ccccc1Cl	100%[activator]	6%
CC(=O)Nc1ccc(NC(=O)c2oc3c(c2C)-c2nn(Cc4ccccc4Cl)cc2CC3)cc1	-13%	15%
Cc1ccc(Cn2ccn(CC(=O)Nc3c(C)cc(C)cc3C)c(=O)c2=O)cc1	-24%	-13%
CCCOc1cc(/C=C(/C#N)c2nc3ccccc3[nH]2)ccc1OC	97%[activator]	69%[activator]
Cn1c(=O)c2c(nc(N3CCC(Cc4ccccc4)CC3)n2CC(=O)O)n(C)c1=O	-11%	-6%
CCC(Oc1ccc(Cl)cc1)C(=O)O (stereo not given)	1%	1%
COCCn1c(NCCO)nc2c1c(=O)[nH]c(=O)n2C	-6%	-6%
CCCCN1C(=O)C(O)(c2c[nH]c3ccccc23)c2cc(Br)ccc21 (stereo not given)	-21%	-3%
CCn1nc(C(=O)Nc2nc(C(C)(C)C)cs2)c2ccccc2c1=O	?	?
O=C(NCc1cccc(Cl)c1)C(=O)Nc1cccc(O)c1	105%[activator]	20%
COc1ccc(-c2c(C)oc3cc(OCC(=O)Nc4ccc5c(c4)OCO5)ccc3c2=O)cc1	72%[activator]	-3%
COc1ccc(C(=O)Nc2nnc(SCc3cc(=O)c4cc(C)cc(C)c4[nH]3)s2)cc1	12%	-10%
CN(Cc1ccsc1)C(=O)c1ccc(-c2ccccc2)cc1	114%[activator]	53%[activator]
Cc1ccc2sc(/C=C/c3ccc(C#N)cc3)nc2c1	10%	29%
Cc1ccccc1CNC(=O)Cn1ccc2c(C)nn(C)c2c1=O	0%	7%
NS(=O)(=O)c1ccc(N/N=C/c2c[nH]c3ccc(Br)cc23)c([N+](=O)[O-])c1	4%	8%
CC(CCc1ccccc1)NC(=O)C1CCCCC1C(=O)O (stereo not given)	5%	40%[activator]
Cc1ccc2oc(=O)n(CCCOc3ccccc3Cl)c2c1	96%[activator]	-8%
O=C(c1n[nH]c(=O)c2ccccc12)N1CCCC(c2nc3ccccc3s2)C1 (stereo not given)	?	22%
Cc1ccc(CN2CCC(CNC(=O)c3cnn(-c4ccccc4Cl)c3C3CCN(C(=O)OC(C)(C)C)CC3)CC2)cc1	10%	-7%
O=C(CN1CCc2sccc2C1c1cccs1)Nc1ccc(F)cc1 (stereo not given)	-1%	-7%
Remaining list, next part:
SMILES	2A firefly	2A Renilla
COc1ccc(Br)cc1/C=C1\Cc2ccccc2C1=O	58%[activator]	118%[activator]
CCCCC(CC)C(=O)NCc1cccs1 (stereo not given)	3%	12%
CCN(CCCNC(=O)c1cc(Nc2ccccc2OC)nc2ccccc12)c1cccc(C)c1	1%	13%
COc1ccc(-c2noc(CC(=O)Nc3ccc(C)c(F)c3)n2)cc1	-26%	-17%
O[C@@H]1[C@@H](O)[C@H](n2c3ccc(Cl)cc3c3ccc4c5cc(Cl)ccc5[nH]c4c32)OC[C@H]1O	4%	14%
c1coc(CNCc2ccsc2)c1	-2%	9%
CN(Cc1ccc(Cl)c(Cl)c1)Cc1nc2ccccc2o1	-4%	-6%
CC(C)c1ccccc1NC(=O)C(Sc1ccccc1)c1ccccc1 (stereo not given)	4%	24%
O=C(O)CSc1ccc(C(=O)/C=C/c2ccc3c(c2)OCCO3)cc1F	-11%	2%
FC(F)(F)c1ccc(C(=NCc2ccccc2)c2ccc(C(F)(F)F)cc2)cc1	-7%	-6%
O=C(N/N=C/C1CC2CCC1C2)C12CC3CC(CC(C3)C1)C2 (stereo not given)	89%[activator]	3%
COc1cc2c(cc1OC)CN(CC(=O)Nc1cc(C)cc(C)c1)CC2	4%	0%

A second format for part of the listing above:
Values run as follows: 2A firefly | 2A Renilla
O=C(Nc1ccc(-c2noc(-c3ccccc3Br)n2)cc1)c1ccco1
 : 32%[activator] | ?
O=C(CN1CCc2sccc2C1c1cccs1)Nc1ccc(F)cc1 (stereo not given)
 : -1% | -7%

(cont.)
SMILES	2A firefly	2A Renilla
Cc1oc2ncnc(N3CCOCC3)c2c1C(=O)Nc1ccc(C(C)C)cc1	4%	-3%
CCCN(Cc1cccs1)C(=O)Nc1ccccc1C	-1%	-3%
Cc1cc(C(=O)OC(C)C(=O)Nc2ccccc2F)c(C)o1 (stereo not given)	7%	5%
COc1ccc(C(=O)N2c3nc(-c4ccco4)nn3C3(CCCCC3)[C@@H]3CCCC[C@@H]32)cc1OC	-18%	38%[activator]
CCOc1ccc2nc(N3CCN(C(=O)c4ccco4)CC3)sc2c1	25%	-5%
Cn1nc(C(=O)NCC(c2cccs2)N2CCCC2)c2ccccc2c1=O (stereo not given)	10%	-5%
COc1ccc(CNC(=O)C2CCN(C(=O)c3cnn(-c4ccccc4)c3-n3cccc3)CC2)cc1	?	?
CCc1ccc(NC(=O)CSc2nnc(-c3cccs3)n2-n2cccc2)cc1	-5%	-7%
CCC(=O)N1CCc2cc(CNS(=O)(=O)c3c(C)cc(C)cc3C)ccc21	6%	75%[activator]
CCN1CCN(c2nc3c(c(=O)[nH]c(=O)n3C)n2CCc2ccc(OC)cc2)CC1	-7%	-14%
Cc1cc(C)cc(NC(=O)CSc2nccn2C2CCCC2)c1	47%[activator]	10%
COc1ccccc1N1CCN(C(=O)CSc2nccn3nc(-c4ccccc4)cc23)CC1	-9%	-15%
COC(=O)c1cc(-c2ccco2)nc2c(C)cccc12	-17%	-23%
Cc1ccc(-c2nn3c(=O)c(NC(=O)c4ccccc4C)cnc3o2)cc1	21%	4%
CC(C)(C)c1ccc(C(=O)NC(Cc2c[nH]c3ccccc23)C(=O)OCC(=O)c2ccc(Cl)cc2)cc1 (stereo not given)	-23%	-8%
Cc1ccc(C)c(C(=O)c2ccccc2)c1	-11%	-7%
CCc1cccc(C)c1NC(=O)CSc1nc(C)cc(C)c1C(=O)Nc1ccccc1	-24%	-6%
Cc1cccn2c(=O)c(C(=O)NCCc3ccccc3)c(O)nc12	2%	14%
COC(=O)c1ccc(C[N+]2(C)CCCCC2)cc1	11%	-3%
CC1CCN(C(=O)CSc2nc(-c3ccc(F)cc3)cc(C(F)(F)F)n2)CC1	-11%	-6%

3 structures from above, ordered by SMILES length, lowest first.
SMILES	2A firefly	2A Renilla
Cc1ccccc1CNC(=O)Cn1ccc2c(C)nn(C)c2c1=O	0%	7%
Cc1cccn2c(=O)c(C(=O)NCCc3ccccc3)c(O)nc12	2%	14%
Cc1oc2ncnc(N3CCOCC3)c2c1C(=O)Nc1ccc(C(C)C)cc1	4%	-3%

Filtered by structure: the compounds so far with a thiophene ring, fused or not.
SMILES	2A firefly	2A Renilla
COc1ccc(NC(=O)c2c(NC(=O)COc3ccccc3)sc3c2CCCCC3)cc1	-3%	-2%
Cc1ccc2nc(Cl)c3cc(C(=O)NC4CCCc5ccccc54)sc3c2c1 (stereo not given)	3%	8%
Cc1sc(-n2c(C)cc(/C=N/O)c2C)c(C(=O)O)c1C	7%	-1%
CCc1c(C)sc(NC(=O)C(CC)c2ccccc2)c1C#N (stereo not given)	-6%	-2%
Cc1cccc(C)c1NC(=O)Nc1csc2c1CCCC2	-19%	-8%
O=C(Cc1ccccc1)Nc1sc2c(c1C(=O)Nc1ccc(Br)cc1)CCC2	-25%	-12%
CN(Cc1ccsc1)C(=O)c1ccc(-c2ccccc2)cc1	114%[activator]	53%[activator]
O=C(CN1CCc2sccc2C1c1cccs1)Nc1ccc(F)cc1 (stereo not given)	-1%	-7%
CCCCC(CC)C(=O)NCc1cccs1 (stereo not given)	3%	12%
c1coc(CNCc2ccsc2)c1	-2%	9%
CCCN(Cc1cccs1)C(=O)Nc1ccccc1C	-1%	-3%
Cn1nc(C(=O)NCC(c2cccs2)N2CCCC2)c2ccccc2c1=O (stereo not given)	10%	-5%
CCc1ccc(NC(=O)CSc2nnc(-c3cccs3)n2-n2cccc2)cc1	-5%	-7%

Screening results (PubChem)
